GALR2 ag – agonists of human galanin receptor 2 (GALR2) | GALR2-expressing cells, agonist activation read-out | activation, %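 (tested at 5 µM)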 | 140,000 tested, 0.48% active;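 active = above mean plus 3 SD of all compounds, about 5% in these data, not always enough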;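 note: 0% = vehicle buffer wells and 100% = reference agonist at full effect; tested in CHO reporter cells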
HSV replic up – HSV replication enhancement | 220,000 tested, 0.005% active | maximum fold increase | AID 1956 | HSV replication augmentation in cells, fold increase;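 active = peak rise of 1.5-fold or more in the series; tested in PC3 cells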;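 note: first round at 10 µM; read as green reporter fluorescence; hits show the peak of a series up to 25 µM; 1 = signal of infected wells without compound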
RGS16-Gao HTS – regulators of human RGS16-Galphao interaction. AID 1441. bead-based flow cytometry RGS16-Galphao binding, fluorescence; actives lie on both sides. binding response (% of control), % at 10 µM. 220,000 tested, 0.38% active;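 active = below 25% or above 175%, edge rows of some plates excepted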;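 note: Galphao activated by GDP with aluminum fluoride before binding; 100% = wells without compound and 0% = beads without RGS; some results beyond the cut were filed as inactive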
Insulin prom inh – TRM-6 insulin promoter activity inhibition. 130,000 tested, 0.9% active. AID 1273. TRM-6 cells (human fetal islet line), insulin promoter-eGFP reporter, imaging; reporter expression induced with tamoxifen. inhibition, % at 2 µM;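 active = inhibition above the mean plus 3 SD, with well images judged a real hit on visual review, cut at about 60% in these data, passing the limit was not always enough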
PKD1 inh – inhibitors of human PKD1 kinase; PKD1 kinase fluorescence polarization assay; inhibition, %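 (about 10 µM by stock and volumes)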; 200,000 tested, 0.056% active; Q15139; AID 797;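 active = inhibition of 50% or more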;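 note: controls were vehicle for no effect and a reference inhibitor for full effect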
Target sequence (Q15139 whole entry, looked up): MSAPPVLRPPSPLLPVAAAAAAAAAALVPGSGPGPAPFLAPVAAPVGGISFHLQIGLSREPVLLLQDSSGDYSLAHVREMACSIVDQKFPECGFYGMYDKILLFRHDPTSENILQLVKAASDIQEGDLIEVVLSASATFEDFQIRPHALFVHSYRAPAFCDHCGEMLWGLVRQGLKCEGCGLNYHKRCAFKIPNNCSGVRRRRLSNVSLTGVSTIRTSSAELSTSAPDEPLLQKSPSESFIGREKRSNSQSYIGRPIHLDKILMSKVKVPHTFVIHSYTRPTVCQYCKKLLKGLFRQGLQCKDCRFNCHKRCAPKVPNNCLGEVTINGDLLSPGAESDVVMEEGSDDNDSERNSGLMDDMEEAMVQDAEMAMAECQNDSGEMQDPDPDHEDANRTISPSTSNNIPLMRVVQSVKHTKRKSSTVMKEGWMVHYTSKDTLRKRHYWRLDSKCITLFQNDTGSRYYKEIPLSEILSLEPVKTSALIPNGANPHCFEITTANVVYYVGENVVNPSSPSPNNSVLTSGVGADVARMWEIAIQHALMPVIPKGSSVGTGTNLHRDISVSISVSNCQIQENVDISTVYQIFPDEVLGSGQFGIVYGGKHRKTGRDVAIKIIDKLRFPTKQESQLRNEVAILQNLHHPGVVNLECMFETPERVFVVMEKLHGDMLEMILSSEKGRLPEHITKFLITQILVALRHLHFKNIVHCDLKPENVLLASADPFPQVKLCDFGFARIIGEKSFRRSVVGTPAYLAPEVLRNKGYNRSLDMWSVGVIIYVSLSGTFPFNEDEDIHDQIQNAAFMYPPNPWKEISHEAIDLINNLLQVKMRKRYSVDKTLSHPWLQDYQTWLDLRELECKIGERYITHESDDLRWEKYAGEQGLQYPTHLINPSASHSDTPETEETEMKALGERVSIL
Insulin prom inh cell count – further read-out of Insulin prom inh, marked with its call; normalized cell count, %; measured here: cell count, toxicity; reference of the scale not given here;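 cells exposed to compound for 48 h; stained nuclei by imaging scaled within each plate; lower means fewer cells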
HSV replic up primary fold – further read-out of HSV replic up, marked with its call; fold increase; compound at 10 µM; measured here: primary screen fold increase 10 uM; tested in PC3 cells;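 GFP signal in the first replicate; 1 = infected wells without compound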
Starred values were filed as active, the others as inactive; i = inactive; . = no result given.

SMILES	GALR2 ag	HSV replic up	HSV replic up primary fold	RGS16-Gao HTS	Insulin prom inh	Insulin prom inh cell count	PKD1 inh
CCOC(=O)CCc1c(C)nc(SCC(=O)O)c(C#N)c1C	0.6	i	0.97	103	.	.	3
CCOC(=O)/C=C1\SCC(=O)N1CC(=O)NCc1ccc(OC)c(OC)c1	.	i	1	101	.	.	-9
Cc1ccc(Cl)cc1N1CCN(C(=O)CN(c2ccccc2)S(=O)(=O)N(C)C)CC1	.	i	0.99	107	.	.	0
COc1ccc(NC(=O)/C(=C\c2ccc3c(c2)OCO3)NC(C)=O)cc1	-2.8	.	.	103	.	.	-14
COc1cc2c(cc1OC)C(c1cccs1)N(C(=O)c1cccc(S(=O)(=O)N(C)C)c1)CC2 (stereo not given)	.	i	0.98	105	.	.	.
O=C(CCn1c(=O)sc2ccccc21)NCc1ccccc1	-3.5	i	0.65	97	.	.	-10
COC(=O)c1scc(C#N)c1N/N=C(\C#N)S(=O)(=O)c1ccc(Cl)cc1	.	i	0.98	99	.	.	.
CC(C)(C)c1ccc(C(=O)NCC(=O)N/N=C/c2ccccc2OCC(=O)O)cc1	.	i	0.87	102	.	.	0
O=C(Nc1cccc(S(=O)(=O)C(F)F)c1)c1ccc(S(=O)(=O)N2CCOCC2)cc1	-0.9	i	0.89	102	-67	92	2
O=[N+]([O-])c1cc(C(F)(F)F)ccc1Oc1cccnc1[N+](=O)[O-]	-0.1	i	0.94	100	-200	127	3
COc1ccc(/C=C/CN2CCN(Cc3ccccc3)C(CCO)C2)cc1 (stereo not given)	.	i	0.91	98	.	.	-4
COc1ccc(CCNC(=O)c2cnn(-c3ccc(C)c(C)c3)c2NC(=O)c2ccco2)cc1OC	-0.4	i	0.85	.	-5	77	7
Cc1nc2ccc(NC(=O)c3ccc(S(=O)(=O)N(C)c4ccccc4)cc3)cc2s1	-0.4	i	0.81	106	10	120	-5
CCOc1ccc(/C=N/N(C)c2ccccc2)cc1OC	0.0	i	0.92	92	46	92	2
COc1ccc(/C=C(/NC(=O)c2ccccc2)C(=O)NC2CCS(=O)(=O)C2)cc1 (stereo not given)	0.4	.	.	108	17	134	-7
COc1ccc(CCNC(=O)C/C(C)=N/NC(=O)C23CC4CC(CC(C4)C2)C3)cc1OC	-1.7	i	0.91	120	34	147	-5
CCCCCn1c(CN2CCN(c3cccc(Cl)c3)CC2)nc2c1c(=O)[nH]c(=O)n2C	-0.7	i	0.99	101	-296	20	-6
Cn1nc(Cc2n[nH]c(=S)n2C)c2ccccc2c1=O	.	i	1.1	99	.	.	.
COC(=O)C1=C(O)/C(=C\c2ccc(CNC(=O)C(=O)Nc3ccc(C)c(C)c3)o2)N=C1C	-0.2	i	0.99	101	-369	20	5
CN(C)S(=O)(=O)c1ccc(C(=O)NCc2nnc(SCC(=O)Nc3ccc(F)cc3)n2-c2ccc(F)cc2)cc1	0.4	i	0.84	100	.	.	-2
O=C(O)CCCCCNC(=O)c1ccccc1Br	-1.5	i	1.1	101	-11	185	2
O=C(Cn1cnc2ccc(Br)cc2c1=O)c1cccs1	-1.0	i	0.74	99	-10	108	-9
O=C(Cn1cnc2ccccc2c1=O)c1cccs1	0.7	i	0.9	111	8	108	-2
c1ccc(SCc2nc3ccccc3[nH]2)cc1	-1.4	i	1.1	94	18	96	-2
O=C(NC1CCCc2ccccc21)c1cccnc1 (stereo not given)	-0.7	i	1.1	106	7	94	1

An excerpt of these results, with values under each structure:
Each structure is followed by: GALR2 ag | HSV replic up | HSV replic up primary fold | RGS16-Gao HTS | Insulin prom inh | Insulin prom inh cell count | PKD1 inh
COc1cc2c(cc1OC)C(c1cccs1)N(C(=O)c1cccc(S(=O)(=O)N(C)C)c1)CC2 (stereo not given)
  . | i | 0.98 | 105 | . | . | .
O=C(CCn1c(=O)sc2ccccc21)NCc1ccccc1
  -3.5 | i | 0.65 | 97 | . | . | -10

Continued.
SMILES	GALR2 ag	HSV replic up	HSV replic up primary fold	RGS16-Gao HTS	Insulin prom inh	Insulin prom inh cell count	PKD1 inh
COc1ccc(/C=C/C(=O)NC(=S)NNC(=O)Cc2cccs2)cc1	-2.3	.	.	105	5	93	-8
CN(C)c1ccc(/C=N/NC(=O)CCc2c[nH]c3ccccc23)cc1	.	i	0.87	98	0	89	-4
CN(C)CCCN=Cc1c(O)n(Cc2ccc3c(c2)OCO3)c(=O)c2ccccc12	.	i	0.94	100	.	.	-4
Cc1ccc(-c2nc(S(=O)(=O)c3ccc(F)cc3)c(SCC(=O)NCC3CCCO3)o2)cc1 (stereo not given)	-0.4	i	0.85	102	-20	73	1
O=[N+]([O-])c1cc(-c2ccc(/C=N/c3nc4ccccn4c3-c3ccco3)o2)ccc1Cl	-2.4	i	0.97	96	14	92	-4
COc1cccc(/C=N/Nc2nc3ccccc3[nH]2)c1OC	.	i	1.1	104	.	.	.
Cc1cccc(-c2cc(C(=O)NCc3ccccn3)c3ccccc3n2)c1	-1.8	i	0.96	103	.	.	-2
COC(=O)[C@@]1(Cc2ccc(OC)cc2)[C@H]2c3cc(C(=O)N(C)C)n(C[C@H](O)CO)c3C[C@H]2CN1C(=O)c1ccccc1	-1.7	i	0.89	34	55	104	-2
O=C(O)CN1C(=O)CNC1=O	0.9	i	0.76	101	-41	196	-7
O=C(CCN(NC(=O)c1ccccc1)C1=NS(=O)(=O)c2ccccc21)NC1CCCCC1	-1.3	i	1.1	108	-6	138	-9
CC(=O)c1cc2c(cc1N/C(=N/S(=O)(=O)c1ccc(Br)cc1)c1ccccc1)OCO2	.	i	0.91	94	.	.	5
CCCCN(Cc1ccccc1)S(=O)(=O)c1ccc2[nH]c(=O)oc2c1	0.5	i	0.94	102	-10	101	-6
COc1ccc(Cn2ccnc2SCC(=O)Nc2cccc(NC(C)=O)c2)cc1	.	i	1	101	9	143	-1
Cc1ccc(SCC2=NN(c3nc(C)cc(C)n3)C(=O)C2)cc1	.	i	1	102	67*	95*	-1
O=C(COC(=O)CSc1nnc(-c2ccc(Cl)cc2)o1)Nc1cc(Cl)cc(Cl)c1	-1.8	i	0.93	91	.	.	9
Nc1ccc(S(=O)(=O)NNC(=O)C(=O)NNc2ccccc2)cc1	-0.7	i	0.94	105	.	.	-8
CC(C)(C)NC(=O)CSc1nc2ccccc2n1-c1ccccc1	-4.2	i	0.84	88	-24	83	-3
c1ccc(-c2csc(Cc3nnc4n3CCCCC4)n2)cc1	-0.7	i	0.92	100	29	140	-9
Cc1ccc(OCC(=O)NNC(=S)NC(=O)C(C)(C)C)c(Br)c1	.	i	0.95	101	.	.	1
Cc1[nH][nH]c(=O)c1C(c1cc2c(cc1Br)OCO2)c1c(C)[nH][nH]c1=O	.	i	0.87	101	67*	109*	-6
Cc1ccc(S(=O)(=O)Nc2cc(=O)[nH]c(SCC(=O)Nc3cccc(C)c3)n2)cc1	.	i	0.99	96	.	.	.
C#CCOCCOCCOCCNc1nc(N2CCN(C(=O)[C@H]([C@@H](C)CC)n3cc(CCCN=C(N)N)nn3)CC2)nc(N2CCN(C(=O)[C@H](C)n3cc(CCCN=C(N)N)nn3)CC2)n1	-1.4	.	.	103	-5	141	-6
CSc1ccc(-c2nc3cnccn3c2Nc2ccc3c(c2)OCO3)cc1	-0.1	i	1.1	90	-20	102	-2
CC(=O)N(C)c1cccc([N+](=O)[O-])c1	.	i	1.2	107	.	.	-5
Cc1ccc(-c2cn3c(=S)[nH]nc3s2)cc1	-0.8	.	.	81	9	115	8

In the list so far, these have a tert-butyl group:
SMILES	GALR2 ag	HSV replic up	HSV replic up primary fold	RGS16-Gao HTS	Insulin prom inh	Insulin prom inh cell count	PKD1 inh
CC(C)(C)c1ccc(C(=O)NCC(=O)N/N=C/c2ccccc2OCC(=O)O)cc1	.	i	0.87	102	.	.	0
CC(C)(C)NC(=O)CSc1nc2ccccc2n1-c1ccccc1	-4.2	i	0.84	88	-24	83	-3
Cc1ccc(OCC(=O)NNC(=S)NC(=O)C(C)(C)C)c(Br)c1	.	i	0.95	101	.	.	1

Carrying on:
SMILES	GALR2 ag	HSV replic up	HSV replic up primary fold	RGS16-Gao HTS	Insulin prom inh	Insulin prom inh cell count	PKD1 inh
COc1ccccc1NC(=S)NC(=O)c1c(-c2ccccc2Cl)noc1C	.	i	1	102	.	.	-4
COc1ccc(CN2CCN(c3ncccn3)CC2)c(OC)c1	-0.1	i	0.84	100	-12	107	-4
CCOC(=O)C1C(=O)CC(C)(O)C(C(=O)OCC)C1c1ccc(Br)cc1 (stereo not given)	-4.2	i	0.98	100	.	.	-12
CN(C)n1cccc1/C=C(\C#N)S(=O)(=O)c1cccc(Cl)c1	.	i	0.9	105	.	.	.
O=C(CSc1nnnn1-c1ccccc1F)Nc1nc2ccccc2s1	-1.8	i	1.1	101	-16	70	-1
c1ccc(OCc2nnc3sc(C4COc5ccccc5O4)nn23)cc1 (stereo not given)	-1.7	i	1.3	86	.	.	-2
CCCN(CCC)C(=O)Cn1c2ccccc2c2nc(=O)cc(C)n21	-1.9	.	.	107	.	.	7
CC(=O)ONC(=Nc1ccccc1)c1nonc1N	.	i	0.87	103	.	.	.
Cc1ccccc1N(C(=O)c1csnn1)C(C(=O)NC(C)(C)C)c1cccs1 (stereo not given)	.	i	0.99	100	-57	46	-7
COc1ccc(-c2nc(SC)n(S(=O)(=O)c3ccccc3)n2)cc1	0.0	i	0.88	103	90*	136*	-6
O=C(N/N=C/c1ccc(O)cc1)c1nc(-c2ccccc2)n(-c2ccccc2)n1	-0.6	i	0.94	113	10	99	-4
COc1ccc(CC(=O)Nc2cc(S(=O)(=O)N3CCCCC3)ccc2C)cc1OC	.	i	1	100	.	.	1
CC(=O)N1CCN(CC(=O)Nc2ccc(C)c(S(=O)(=O)N(C)C)c2)CC1	.	i	1.1	97	.	.	-1
CCN(CC)C(=O)c1cccc2nc3ccccc3nc12	.	i	0.95	104	.	.	.
Cc1c(=O)n(OCc2cccc(F)c2)c2ccccc2[n+]1[O-]	-3.2	i	1.2	103	-132	99	-5
O=C1CC(c2cccs2)c2cc3c(cc2N1)OCCO3 (stereo not given)	-2.7	i	0.87	94	30	153	-5
COc1ccc(CC(=O)OCC(=O)Nc2ccc3c(c2)OCO3)cc1	.	i	1.1	103	.	.	-4
CN(C)c1oc(COc2ccc(F)cc2)nc1C#N	-1.3	i	0.89	111	17	117	3
CC(=O)Nc1ccc(NC(=O)C(C)OC(=O)c2ccccc2NS(=O)(=O)c2cccs2)cc1 (stereo not given)	.	i	0.92	102	.	.	.
COCC(=O)N(C)C1(c2nnnn2CCOC(=O)Nc2ccc(Cl)cc2)CCCCC1	.	i	0.9	103	.	.	-9
CCN1CC=C2C(C#N)=C(N)C(C#N)(C#N)[C@H](c3cccc(OC)c3OC)[C@H]2C1	1.3	i	1.3	116	i	78	-5
Cc1ccc(OCC(=O)Nc2ccccc2N2CCOCC2)c(C)c1	-1.9	i	0.94	95	-33	43	-7
O=C(NCc1ccccc1Cl)C1CCN(c2cnccn2)CC1	.	i	1.1	98	.	.	-3
CCOC(=O)N1CCN(c2cc(=O)n(-c3ccc(Br)cc3)c(=O)[nH]2)CC1	-2.5	i	0.96	98	.	.	-5
CCOC(=O)c1c(/N=C/c2ccc(O)cc2O)sc2c1CCC2	-0.4	i	2.4	151	-47	83	7
(cont.)
SMILES	GALR2 ag	HSV replic up	HSV replic up primary fold	RGS16-Gao HTS	Insulin prom inh	Insulin prom inh cell count	PKD1 inh
COc1ccccc1CCNC(=O)CCSc1nc(-c2ccco2)cc(C(F)(F)F)n1	-0.9	i	1	98	30	142	-10
CCOCCCNC(=O)c1ccc2c(c1)N(Cc1ccccc1)C(=O)CS2=O (stereo not given)	-0.4	i	0.59	100	.	.	-9
COc1ccc(NC(=O)c2ccc(Cl)c(NC(=O)c3ccncc3)c2)cc1	.	i	1.1	101	.	.	-6
CNC(=O)c1nnsc1S(=O)c1ccc(Cl)cc1 (stereo not given)	.	i	0.63	101	-155	31	7
O=C(Nc1ccc2c(c1)CCC2)c1cnc(Cl)c(Cl)c1	.	i	1.2	106	-24	145	-2
COCC(C)n1c(C)cc(C(=O)CSc2nc(C)c(C)c(C)n2)c1C (stereo not given)	.	i	0.84	89	.	.	.
CCCCn1c(=O)[nH]c(=O)c2c1nc(CN1C(=O)c3ccccc3S1(=O)=O)n2CCC	-2.0	i	1	96	-71	93	1
CCNc1nc(Oc2ccc(C(=O)OC)cc2)nc(N2CCOCC2)n1	.	i	0.95	88	.	.	.
COc1ccc(C(OC(=O)c2ccco2)C(=O)NC2CCCCC2)cc1 (stereo not given)	-1.8	i	1.1	100	48	98	-5
Cn1c(SCC(=O)N2CCCC2)nc2ccccc21	.	i	0.98	98	-13	63	-1
CCOc1ccc(C(=O)Nc2ccc3c(c2)OCCO3)cc1[N+](=O)[O-]	.	i	0.91	101	0	65	1
COc1cc(OC)nc(NC(=O)NS(=O)(=O)c2ccccc2Cl)n1	.	i	0.99	89	.	.	.
Cc1ccc(NC(=O)NC2(C(=O)NCc3ccccc3)CCCCC2)cc1	-1.8	i	1.1	99	.	.	0
